# Screens as filed in PubChem BioAssay.
# HSD17B inh – inhibitors of human HSD17B10 dehydrogenase; Q99714; recombinant HSD17B10, NADH fluorescence kinetic; many of its hits are not listed in these tables; Potency, µM (doses to about 57.1 µM), for inactives: at the top dose activity change, negative = inhibition, actives largely listed as inhibitors; 7.6% of 75,000 active; active = well fitted inhibition curve with a large enough effect; inconclusive = small, poorly fitted or top-dose-only effect; inactive = no such curve, though single readings can be large or run the other way;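 also: the protocol describes HADH2 (HSD17B10) and not the HSD17B4 of the title; nearly all actives have a fitted effect of over 70% in size; most hits overshoot -100% by far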
#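 20 nM HADH2, pH 9.0 Tris/Tween; cpd preinc 15 min RT; start w/ 1 mM NAD+ + 90 uM b-hydroxybutyryl-CoA; kinetic fluor ex360/em450 q30s x 4 min; delta last-first.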
# Numbers without * were called inactive; u = inconclusive; & = joins results of further samples; [ ] = remark or other dose. % is scaled to controls: 0 for no effect and ±100 for the full control effect; potency is read from the fitted curve at half-maximal effect. The list is partial, so the mix of outcomes need not match the whole.
# Start of the listing, in advance, 5 compounds:
entry	mol	HSD17B inh
1	CCCCN(CCCC)CCCOC(=O)c1ccc(N)cc1	-6%
2	COc1cc(C2Oc3cc(C4Oc5cc(O)cc(O)c5C(=O)C4O)ccc3OC2CO)ccc1O (stereo unspecified)	-17%
3	Cc1ccsc1/C=C\C1=NCCCN1C	-2%[25.6 µM]
4	CCCCCCCCCCCCCCC[C@@H](O)[C@@H](N)CO	-14%
5	CN(C(=O)c1c(O)c2ccccc2n(C)c1=O)c1ccccc1	-11%

# All compounds of this part, from the start:
entry	mol	HSD17B inh
1	CCCCN(CCCC)CCCOC(=O)c1ccc(N)cc1	-6%
2	COc1cc(C2Oc3cc(C4Oc5cc(O)cc(O)c5C(=O)C4O)ccc3OC2CO)ccc1O (stereo unspecified)	-17%
3	Cc1ccsc1/C=C\C1=NCCCN1C	-2%[25.6 µM]
4	CCCCCCCCCCCCCCC[C@@H](O)[C@@H](N)CO	-14%
5	CN(C(=O)c1c(O)c2ccccc2n(C)c1=O)c1ccccc1	-11%
6	Nc1ncnc2c1c(-c1ccc(Oc3ccccc3)cc1)cn2C1CCCC1	32µM*
7	CN(C)C/C=C(\c1ccc(Br)cc1)c1cccnc1	-3%[11.4 µM]
8	CCc1ccccc1OC[C@@H](O)CN[C@H]1CCCc2ccccc21	6%
9	CC[C@@]12CCCN3CCc4c(n(c5ccccc45)[C@](O)(C(=O)OC)C1)[C@H]32	3%
10	C=C1c2cccc(O)c2C(O)=C2C(=O)[C@@]3(O)C(O)=C(C(N)=O)C(=O)[C@@H](N(C)C)[C@@H]3[C@@H](O)[C@H]12	5µM*
11	Cn1ccc2cc3c(cc21)CCN3C(=O)Nc1cccnc1	9%&-6%
12	CCCCOc1cc(C(=O)OCCN(CC)CC)ccc1N	6%[25.6 µM]
13	Cc1cc(=O)oc2cc(O)ccc12	10µM*
14	C=Cc1ccccc1	0%
15	COc1cc(C=O)ccc1O	-9%
16	COc1ccc(-c2cc(C(F)F)nn2-c2ccc(S(N)(=O)=O)cc2)cc1F	2%
17	O=C(O)c1cc(=O)c2ccccc2o1	-4%
18	CCN(CCCCOC(=O)c1ccc(OC)c(OC)c1)C(C)Cc1ccc(OC)cc1 (stereo unspecified)	-2%
19	CCCCNCC	3%
20	CCc1cccc(CC)c1NC(=O)CN(CC(=O)O)CC(=O)O	1%[25.6 µM]

# Arranged by number of heavy atoms (lowest first): seven of the compounds above.
entry	mol	HSD17B inh
14	C=Cc1ccccc1	0%
7	CN(C)C/C=C(\c1ccc(Br)cc1)c1cccnc1	-3%[11.4 µM]
4	CCCCCCCCCCCCCCC[C@@H](O)[C@@H](N)CO	-14%
8	CCc1ccccc1OC[C@@H](O)CN[C@H]1CCCc2ccccc21	6%
16	COc1ccc(-c2cc(C(F)F)nn2-c2ccc(S(N)(=O)=O)cc2)cc1F	2%
6	Nc1ncnc2c1c(-c1ccc(Oc3ccccc3)cc1)cn2C1CCCC1	32µM*
10	C=C1c2cccc(O)c2C(O)=C2C(=O)[C@@]3(O)C(O)=C(C(N)=O)C(=O)[C@@H](N(C)C)[C@@H]3[C@@H](O)[C@H]12	5µM*

# The results go on.
entry	mol	HSD17B inh
21	Cc1scc2c1N(C(=O)CN1CCN(C)CC1)c1ccccc1NC2=O	-1%
22	CC1CCC2(C(=O)O)CCC3(C)C(=CCC4C3(C)CCC3[C@@]4(C)CC(O)C(O)[C@@]3(C)CO)C2C1C (stereo partly specified)	6%
23	CCCOc1ccc2nc(NC(=O)OC)[nH]c2c1	-4%
24	Cc1cc(Cn2cnc3c2C[C@@H](C(=O)O)N(C(=O)C(c2ccccc2)c2ccccc2)C3)ccc1N(C)C	u
25	CCC1OC(=O)C[C@H](O)C(C)[C@@H](O[C@@H]2OC(C)C(O)C(N(C)C)C2O)C(CCN2CC(C)CC(C)C2)CC(C)C(=O)/C=C/C(C)=C\[C@@H]1COC1OC(C)C(O)C(OC)C1OC (stereo partly specified)	4%
26	COc1ccc(C(=O)c2ccccc2)c(O)c1	-5%
27	Cc1ccccc1OCC(O)CO (stereo unspecified)	3%
28	CCN(CC)CCOc1ccc(Cc2ccccc2)cc1	-12%
29	CC(Cc1cccc(C(F)(F)F)c1)NCCOC(=O)c1ccccc1 (stereo unspecified)	-2%
30	C[C@H](N)C1CCC(C(=O)Nc2ccncc2)CC1 (stereo partly specified)	3%
